Screening data: PubChem, ICCB-Longwood Screening Facility, Harvard Medical School
HCMV UL50-53 inh: inhibitors of HCMV UL50-UL53 interaction, biochemical, HTRF; HCMV UL50-UL53 nuclear egress complex (human cytomegalovirus); normalized percent inhibition; inhibition, % (concentration not given with the values); actives 0.15% (n = 190,000);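 active = both replicates at 50% or more, plus weaker picks with an unusually low signal ratio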;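 note: stock transfer was 100 nL into about 20 µL; 0% = negative control wells and 100% = wells with untagged competitor protein; inactives centre near -12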
Numbers without * were called inactive; & = joins results of further samples. Not all compounds are listed; the hit share may differ from the screen's.

SMILES	HCMV UL50-53 inh
O=C(CS(=O)(=O)c1c[nH]c2ccccc12)N1CCN(c2ccccc2)CC1	-15
CC(=O)Nc1nc2sc(C)c(C)c2c(=O)s1	-13
CC(C)N(C(=O)CSc1ccccc1C(=O)O)c1ccccc1	-5
NC1CCCN(c2c(C=C3SC(=O)NC3=O)cccc2-c2ccccc2)C1 (configuration not stated)	-14
COc1cc(OC)cc(C(=O)NC(C(=O)O)C23CC4CC(CC(C4)C2)C3)c1 (configuration not stated)	-22
CCCCC(CC)CN=C(N)NC(N)=NCCCCCCN=C(N)NC(N)=NCC(CC)CCCC (configuration not stated)	-13
COc1ccc(C(=O)Nc2nnc(-c3ccc(Cl)cc3)o2)cc1	-7
CCOC(=O)c1nn(CC)c2c1CN(C(=O)Cn1nc(-c3ccccc3)c3ccccc3c1=O)CC2	-3
CCCCC(=O)OC1(C(=O)CO)CCC2C3CCC4=CC(=O)CCC4(C)C3C(O)CC21C (configuration not stated)	-30
CCn1c(SC)nnc1-c1nnc(SC)n1CC	-4
O=C1CCCc2occ(C(=O)N3CCc4[nH]nc(C5CCC5)c4C3)c21	-15
O=C(COC(=O)c1ccc(S(=O)(=O)N2CCCCC2)cc1)c1ccccc1	-9
COC(=O)c1ccc(CSC(=N)N)cc1	0
CCCCC[C@](C)(O)/C=C/[C@@H]1[C@@H](C/C=C\CCCC(=O)O)[C@@H](O)C[C@H]1O	-19&-19
CN[C@H]1[C@@H](O)[C@H](O[C@H]2[C@@H](O)[C@@H](OC3OC(CN)=CCC3N)[C@H](N)C[C@@H]2N)OC[C@@]1(C)O (some centres not stated)	-16
N=C(N)S/C=C\C(=O)O	10
COc1ccc(-c2cc3ccccc3n2CC(O)CN2CCN(CCO)CC2)cc1 (configuration not stated)	1
CC(C)OCC(O)CN1CCN(c2ccccc2)CC1 (configuration not stated)	-4
O=C(O)CCc1c[nH]c2ccccc12	-16
O=C(C(=O)N1CCCCC1c1nc2ccc(F)cc2[nH]1)c1ccccc1 (configuration not stated)	-6
COC(=O)[C@H](Cc1ccc([N+](=O)[O-])cc1)NC(=O)c1cccc2ccccc12	-11
COc1cc(C(=O)NCCn2ccc3ccccc32)cc(OC)c1OC	-11
Cc1cc(=O)cc(C)n1-c1ccc(C(=O)O)cc1	7
O=C1SCN(Cc2ccccc2)CN1Cc1ccccc1	-70

Some of these compounds in order of SMILES length, low to high:
SMILES	HCMV UL50-53 inh
O=C(O)CCc1c[nH]c2ccccc12	-16
CCn1c(SC)nnc1-c1nnc(SC)n1CC	-4
O=C1SCN(Cc2ccccc2)CN1Cc1ccccc1	-70
Cc1cc(=O)cc(C)n1-c1ccc(C(=O)O)cc1	7
CC(C)N(C(=O)CSc1ccccc1C(=O)O)c1ccccc1	-5
COc1ccc(C(=O)Nc2nnc(-c3ccc(Cl)cc3)o2)cc1	-7
COc1ccc(-c2cc3ccccc3n2CC(O)CN2CCN(CCO)CC2)cc1 (configuration not stated)	1
O=C1CCCc2occ(C(=O)N3CCc4[nH]nc(C5CCC5)c4C3)c21	-15
O=C(COC(=O)c1ccc(S(=O)(=O)N2CCCCC2)cc1)c1ccccc1	-9
COc1cc(OC)cc(C(=O)NC(C(=O)O)C23CC4CC(CC(C4)C2)C3)c1 (configuration not stated)	-22
CCCCC(CC)CN=C(N)NC(N)=NCCCCCCN=C(N)NC(N)=NCC(CC)CCCC (configuration not stated)	-13
CCCCC(=O)OC1(C(=O)CO)CCC2C3CCC4=CC(=O)CCC4(C)C3C(O)CC21C (configuration not stated)	-30
COC(=O)[C@H](Cc1ccc([N+](=O)[O-])cc1)NC(=O)c1cccc2ccccc12	-11
CCOC(=O)c1nn(CC)c2c1CN(C(=O)Cn1nc(-c3ccccc3)c3ccccc3c1=O)CC2	-3
CCCCC[C@](C)(O)/C=C/[C@@H]1[C@@H](C/C=C\CCCC(=O)O)[C@@H](O)C[C@H]1O	-19&-19
CN[C@H]1[C@@H](O)[C@H](O[C@H]2[C@@H](O)[C@@H](OC3OC(CN)=CCC3N)[C@H](N)C[C@@H]2N)OC[C@@]1(C)O (some centres not stated)	-16

(more compounds)
SMILES	HCMV UL50-53 inh
COC(=O)c1ccc2nc(NC(=O)C(C)C)sc2c1	-6
C#C[C@]1(O)CCC2C3CCc4cc(OC5CCCC5)ccc4C3CC[C@@]21C (some centres not stated)	-60
Cc1ccc2nc(NC(=O)CSc3nccn3-c3ccccc3)sc2c1	5
CC1CCN(c2nncc3ccccc23)CC1	-7
CCSc1nc2c(cc1C#N)C(=O)CCC2	-16
O=c1oc2ccccc2cc1-c1nc(-c2ccncc2)n[nH]1	-28
Cc1c2oc3c(C)ccc(C(=O)NC4C(=O)NC(C(C)C)C(=O)N5CCCC5C(=O)N(C)CC(=O)N(C)C(C(C)C)C(=O)OC4C)c3nc-2c(C(=O)NC2C(=O)NC(C(C)C)C(=O)N3CCCC3C(=O)N(C)CC(=O)N(C)C(C(C)C)C(=O)OC2C)c(N)c1=O (configuration not stated)	-35
COc1ccccc1C(=O)Nc1ncnc2sc3c(c12)CCCC3	11
COc1ccc2oc(=O)c(C(=O)NC3=C(C#N)CCC3)cc2c1	-10
O=C(CSc1ccc2nnc(-c3ccc(F)cc3)n2n1)OCc1ccccc1	-1
COc1nccc(-c2c(-c3ccc(F)cc3)ncn2C2CCNCC2)n1	-21&-23&-29
CCOC(=O)C(C)Oc1ccc2c3c(c(=O)oc2c1)CCC3 (configuration not stated)	-12
CCc1ccc(N=Cc2c(O)ccc3ccccc23)cc1	-9
CCCCCNC(=O)N1CCC2(CC1)Nc1ccccc1N(CC)C2=O	-2
O=C(CSc1ncnc2ccccc12)NCCc1ccccc1	12
Cc1cccc(-n2cc(-c3ccccc3)c3c(=O)[nH]cnc32)c1	-15
CC[C@H](CO)Nc1nc(NCc2ccccc2O)c2ncn(C(C)C)c2n1	-5
CC/C=C\C/C=C\C/C=C\C/C=C\C/C=C\C/C=C\CCC(=O)O[C@H](COCCCCCCCCCCCCCCCC)COP(=O)([O-])OCC[N+](C)(C)C	5&5
Oc1c(Br)cc(Br)cc1C=Nc1ccccc1F	-4
NCC(=O)Nc1ccc(-n2nc(C(F)(F)F)cc2-c2ccc3c(ccc4ccccc43)c2)cc1	-15
CCOc1ccc(-c2cc(O)cc3sc(=O)oc23)cc1	11&0
C=C(NC(=O)C(=C)NC(=O)c1csc(C2=N[C@H]3c4csc(n4)[C@H]4NC(=O)c5csc(n5)[C@H]([C@@](C)(O)[C@@H](C)O)NC(=O)[C@H]5CSC(=N5)/C(=C\C)NC(=O)[C@H]([C@@H](C)O)NC(=O)c5csc(n5)[C@]3(CC2)NC(=O)[C@H](C)NC(=O)C(=C)NC(=O)[C@H](C)NC(=O)[C@H](C(C)CC)N[C@@H]2C=Cc3c([C@H](C)O)cc(nc3[C@H]2O)C(=O)O[C@@H]4C)n1)C(N)=O (some centres not stated)	-22
Cc1cc(O)c(C(C)C)cc1NS(=O)(=O)c1ccccc1	-7
COc1ccc(OCc2cn3cccnc3n2)cc1	-13
Cc1nnc(C(=O)NC(C)(C)c2nc(C(=O)NCc3ccc(F)cc3)c(O)c(=O)n2C)o1	-21
O=C(Nc1nc2ccc(Cl)cc2s1)c1ccco1	-3
CCN1CCN(Cc2ccc(NC(=O)c3ccc(C)c(NC(=O)c4nccnc4N)c3)cc2C(F)(F)F)CC1	-20
O=C(/C=C/c1ccco1)Nc1ccc(Oc2ccccc2)cc1	-6
O=C(Nc1ncc(Cc2ccccc2)s1)c1ccccc1	-14
COC1O[C@H]2O[C@@]3(C)CC[C@H]4[C@@H](C)CC[C@@H]([C@H]1C)[C@@]24OO3 (some centres not stated)	-11
Cc1sc2nc(SCc3cc(=O)[nH][nH]3)nc(N)c2c1C	-12
N[C@@H]1CCN(O)C1=O	-4
Cc1ccc2c(c1)c(C)c(C)n2CC(O)CN1CCCCC1 (configuration not stated)	-5
CCC(C(=O)NCc1ccc2c(c1)cc(C)n2C)c1ccccc1 (configuration not stated)	8
O=C(Nc1nnc(SCC(=O)N2CCc3ccccc32)s1)C1CCCCC1	-17
O=C(Nc1ccccc1Cl)N[C@H]1C[C@H]2C(=O)N[C@H](Cc3ccc(O)cc3)C(=O)N2C1	-11

Not a retest: 2 of the compounds above.
SMILES	HCMV UL50-53 inh
O=C(Nc1nnc(SCC(=O)N2CCc3ccccc32)s1)C1CCCCC1	-17
O=C(Nc1ccccc1Cl)N[C@H]1C[C@H]2C(=O)N[C@H](Cc3ccc(O)cc3)C(=O)N2C1	-11

(listing goes on)
SMILES	HCMV UL50-53 inh
Cc1ccc(NC(=O)c2ccco2)c(C(=O)c2ccccc2)c1	9
Cc1nc2ccc(NC(=O)c3cccs3)cc2o1	3
CCCCC[C@](C)(O)/C=C/[C@@H]1[C@@H](C/C=C\CCCC(=O)OC)[C@@H](O)C[C@H]1O	-17&-17
CC(NC(=O)OCc1ccccc1)C(=O)O (configuration not stated)	-30
Nc1ccccc1/C=C1\C(=O)Nc2ccccc21	-52
Cc1cccc(N2CCN(C(=O)C3CCC(=O)N3C(C)C)CC2C)c1 (configuration not stated)	8
CCN(CC)c1nnc(Cl)c2ccccc12	-19
Fc1ccc(Cn2cnc3ccccc32)cc1	-7
O=C(Nc1ccc(O)c(-c2nc3ccccc3s2)c1)C1CCCCC1	-13
CC(C)CN1CC(OCc2cccc(F)c2)CN(Cc2cccn2-c2ncccn2)CC1=O (configuration not stated)	-7
CCC(=O)Oc1ccc2c(c1)CCC1C2CC[C@@]2(C)C1CC[C@@H]2OC(=O)CC (some centres not stated)	-65
COc1cc(C)c(Cl)c(C)c1S(=O)(=O)N1CCN(Cc2ccccc2)CC1	2
CN1CCCC1CCO[C@](C)(c1ccccc1)c1ccc(Cl)cc1 (some centres not stated)	0
NC(=O)CSc1nc2ccccc2[nH]1	-21
CCOc1ccc(S(=O)(=O)n2ccc(C)n2)cc1	2
CC(=O)Oc1c(Sc2ccccc2)c(C)nn1C(C)(C)C	0
S=C(SCc1cn2ccccc2n1)N1CCOCC1	-9
CC(C)(C)c1cc(C(c2ccc(F)cc2)N2CCN(CCO)CC2)cc(C(C)(C)C)c1O (configuration not stated)	-9
CN(C)CCOC(=O)C12CC3CC(CC(C3)C1)C2	-17
O=c1cc(N2CCNCC2)oc2c(-c3ccccc3)cccc12	-22&0
CC(=O)NCCc1nc2ccccc2n1Cc1ccccc1	5
O=C(Nc1c(-c2cccs2)nc2ccccn12)c1c(F)cccc1F	-16
Cc1nc(-c2c(C(F)(F)F)noc2-c2ccc(O)cc2O)cs1	-8
CC1CC(C)CN(C(=O)CSc2nnc(Cc3ccccc3)o2)C1 (configuration not stated)	-6
CC(=O)C=Cc1cn(C)c2ccccc12	-58
CCN(CC)CCCC(C)Nc1nc(C)cc(Nc2ccc3nc(C)cc(N)c3c2)n1 (configuration not stated)	30&30
CCCCc1ccc2nc(NC(=O)OC)[nH]c2c1	-14
CCN1CCN(Cc2ccc3cccnc3c2O)CC1	-29
COc1ccccc1/C=C1\SC(=O)N(c2ccccc2)C1=O	1&-9
O=C(Nc1nnc(-c2ccccc2)o1)c1sc2ccccc2c1Cl	11
Cn1c(C2=C(c3c4n(c5ccccc35)CCC(CN)C4)C(=O)NC2=O)cc2ccccc21 (configuration not stated)	-32&-52&-107
Cc1ccc(S(=O)(=O)NCc2ccc3c(c2)cc(C)n3C)cc1	-11
N#Cc1c2c(c(-c3ccccc3)[nH]c1=O)CCCC2	-4
O=C(CSc1nnc(-c2ccncc2)o1)NCc1ccccc1	-14
Cc1[nH]c2ccccc2c1C1=C(NCCc2ccc(F)cc2)C(=O)N(C)C1=O	-12
CCCCCCCC/C=C\C/C=C\C/C=C\CCCC(=O)NCCO	-11&-11&-11
CCCCCCCCCCCCCCCCOCC(CO)OC(C)=O (configuration not stated)	-3
Cc1ccc(NC(=O)CN2C(=O)CSC(C)C2=O)cc1 (configuration not stated)	-6
O=C1NC(c2ccc(Cl)cc2)=COc2ccccc21	-2
OC(c1ccc(-n2ccnc2)cc1)c1ccc(-n2ccnc2)cc1	-8
CCN(CC)C(=O)C1C(=O)NC2(C)CC1c1ccccc1O2 (configuration not stated)	-10
CCOC(=O)CSc1nnc(NC(=O)CC)s1	-2
Cc1c[nH]c(=O)n(CCCN2CCN(c3ccccc3OCC(F)(F)F)CC2)c1=O	-5
c1ccc2c3c([nH]c2c1)[C@H]1C2CCC([C@@H]4CCCN[C@H]24)N1CC3 (some centres not stated)	-40
Brc1c(-c2ccccc2)nc2n1CCC2	-22
CC(=O)OCC(=O)[C@@]1(O)[C@@H](C)CC2C3CCC4=CC(=O)C=C[C@]4(C)[C@@]3(F)[C@@H](O)C[C@@]21C (some centres not stated)	-72
CN1CCc2c(sc(NC(=O)c3cc(Cl)sc3Cl)c2C(N)=O)C1	0
Cc1ccc2c(-c3ncnc4scc(C)c34)cccc2n1	-15&-15
COc1ccc(NC(=O)c2ccc(Cl)cc2)cc1	0
COc1ccc2c(c1)c(CC(=O)Nc1ccc(NC(C)=O)cc1)c(C)n2C(=O)c1ccc(Cl)cc1	-8&-8
O=C(CSc1nc2sc3c(c2c(=O)[nH]1)CCC3)Nc1ccccc1C(F)(F)F	-2
CCOC(=O)C1=C(C)NC(=S)NC1c1cccc(O)c1 (configuration not stated)	-4&-2
O=C(CSc1nc2ccccc2o1)OCC(=O)c1ccccc1	-12
COc1ccccc1N1CCN(CC(O)COc2c(F)cc(Br)cc2F)CC1 (configuration not stated)	-2
COc1ccccc1C(=O)N1CCC(n2cc(-c3ccccn3)nn2)CC1	-17&-17
O=C1NC(=O)C(=Cc2ccc(-c3ccc(F)cc3)o2)S1	8
CCCN(CCc1cccs1)C1CCc2c(O)cccc2C1 (configuration not stated)	-14
CC(=O)N1CCC(NCCOc2c(C)cccc2Cl)CC1	-4
CC1(C)CC(=O)c2sc(NC(=O)c3cccs3)nc2C1	-10
COc1cc(C(=O)NC2CCN(C)CC2)ccc1Nc1ncc2c(n1)N(C1CCC(O)CC1)CCC(=O)N2C (configuration not stated)	5
More results
SMILES	HCMV UL50-53 inh
O=C(CN=C(c1ccccc1)c1ccccc1)OCc1ccccc1	-15&-15
CCC(C)(C)NCc1c(C)cc(C)c(CO)c1C	-11
O=C1NCCN(C(=O)c2ccccc2)C1Cc1ccccc1 (configuration not stated)	-22
O=C(Nc1nc(-c2ccncc2)cs1)C1COc2ccccc2O1 (configuration not stated)	3
CC(C)N1CCc2c(sc(NC(=O)CCOc3ccccc3)c2C(N)=O)C1	-34
